Compound activity (PubChem)
Vaccinia stage: Vaccinia orthopox stage-specific inhibition; AID 1053133; Vaccinia-infected cells, mCherry/Venus stage reporter fluorescence; active compounds read low; some inactives read as strong as hits; activity change (mCherry), % (no concentration beside the values); hit rate 0.01% among 89,000;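 active = mCherry past -33% and 40 or more points under the early reporter, replicates agreeing; inconclusive = past -33% without that gap or agreement; tested in A549 cells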;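 also: scaled between vehicle wells and reference inhibitor wells; 23 nL library stock went into each well; one replicate is shown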
Vaccinia stage Venus: recorded beside Vaccinia stage, whose call it bears; activity change (Venus), %; measured here: Venus reporter, other viral stage;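 negative = less Venus signal; first of two replicates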
An asterisk follows results filed as active; ? = inconclusive; · = not tested or not shown; & = joins results of further samples.

Screens in order: Vaccinia stage, Vaccinia stage Venus
> Cc1ccc(S(=O)(=O)N(C)C[C@H]2Oc3ccc(NC(=O)Nc4c(C)noc4C)cc3C(=O)N([C@H](C)CO)C[C@H]2C)cc1
  2, 8
> COCCNC(=O)C[C@@H]1CC[C@H]2[C@@H](COc3ccc(NC(=O)Cc4ccccc4)cc3C(=O)N2C)O1
  6, 13
> CCC(=O)N1[C@H](CN(CC)C(C)=O)[C@@H](c2ccc(-c3cccnc3)cc2)[C@@H]1CO
  10, 17
> C[C@@H]1CN([C@@H](C)CO)C(=O)c2cc(NC(=O)NC3CCCCC3)ccc2O[C@@H]1CN(C)S(C)(=O)=O
  8, -2
> O=C(C[C@@H]1C=C[C@H](NS(=O)(=O)c2ccc(F)cc2)[C@H](CO)O1)NC1CCCCC1
  -6, -1
> C[C@@H]1CN([C@H](C)CO)C(=O)c2cc(NC(=O)CCCN(C)C)ccc2O[C@H]1CN(C)S(=O)(=O)c1cn(C)cn1
  0, -1
> COc1ccc(CN(C)C[C@@H]2OCCCC[C@@H](C)Oc3ccc(NS(=O)(=O)c4ccccc4)cc3C(=O)N([C@H](C)CO)C[C@@H]2C)cc1
  -2, -2
> C[C@@H]1CN([C@@H](C)CO)C(=O)c2cccc(NC(=O)c3nc4ccccc4s3)c2O[C@H]1CN(C)S(C)(=O)=O
  5, 13
> C=CCOC(=O)C1=C[C@H](c2csc3ccccc23)C[C@H](OCCCCO)O1
  4, -2
> C[C@H]1CN([C@@H](C)CO)C(=O)Cc2cc(NC(=O)CCC(F)(F)F)ccc2O[C@H]1CN(C)S(=O)(=O)c1ccc(Cl)cc1
  -30, -21
> CC(C)CC#Cc1cnc2c(c1)C(=O)N([C@H](C)CO)C[C@H](C)[C@H](CN(C)S(=O)(=O)c1ccccc1)O2
  -8&-3, -4&-7
> CO[C@@H]1CN(C)C(=O)c2cc(NC(=O)C3CC3)ccc2OC[C@H](C)N(Cc2cccnc2)C[C@@H]1C
  -11, -2
> CCCC(=O)Nc1ccc2c(c1)C(=O)N(C)C[C@@H](OC)[C@H](C)CN(Cc1cc(F)ccc1F)[C@H](C)CO2
  -2, 1
> Cc1noc(C)c1NC(=O)N(C)C[C@H]1Oc2ccc(NC(=O)Nc3ccc4c(c3)OCO4)cc2CC(=O)N([C@@H](C)CO)C[C@@H]1C
  11, 11
> Cc1cccc(S(=O)(=O)N[C@H]2CC[C@@H](CCNC(=O)CCN3CCCCC3)O[C@H]2CO)c1
  -6, -2

Entries of single compounds, looked up by structure. Screens in order: Vaccinia stage, Vaccinia stage Venus
Profile of COCCNC(=O)C[C@@H]1CC[C@H]2[C@@H](COc3ccc(NC(=O)Cc4ccccc4)cc3C(=O)N2C)O1 : 6, 13
Profile of C[C@@H]1CN([C@@H](C)CO)C(=O)c2cc(NC(=O)NC3CCCCC3)ccc2O[C@@H]1CN(C)S(C)(=O)=O : 8, -2
Profile of CC(C)CC#Cc1cnc2c(c1)C(=O)N([C@H](C)CO)C[C@H](C)[C@H](CN(C)S(=O)(=O)c1ccccc1)O2 : -8&-3, -4&-7
Profile of C[C@@H]1CN([C@@H](C)CO)C(=O)c2cccc(NC(=O)c3nc4ccccc4s3)c2O[C@H]1CN(C)S(C)(=O)=O : 5, 13

More entries follow.
Screens in order: Vaccinia stage, Vaccinia stage Venus
> N#Cc1ccc(-c2ccc3c(c2)[C@@H]2[C@@H](CCN2C(=O)C2CCCCC2)[C@@H](CO)N3)cc1
  ?, ·
> COc1cc(CN2CC3(CN(C)C3)c3c([nH]c4cc(OC)ccc34)[C@H]2CO)cc(OC)c1
  2, 0
> Cc1ccc(S(=O)(=O)Nc2cccc3c2O[C@@H](CN(C)S(=O)(=O)c2cccs2)[C@H](C)CN([C@H](C)CO)C3=O)cc1
  17, 23
> C[C@H](CO)N1C[C@H](C)[C@H](CN(C)Cc2ccccc2)OCCCC[C@H](C)Oc2ccc(NS(=O)(=O)c3cn(C)cn3)cc2C1=O
  8, 4
> CO[C@H]1CN(C)C(=O)c2ccc(NS(C)(=O)=O)cc2OC[C@@H](C)N(C)C[C@@H]1C
  -4, -5
> C[C@@H]1CCCCO[C@@H](CN(C)C(=O)c2ccncc2)[C@@H](C)CN([C@H](C)CO)C(=O)c2cc(NC(=O)C3CCCCC3)ccc2O1
  5, -4
> O=C(Nc1ccc(-c2ccccc2)cc1)[C@@H]1[C@@H](CO)[C@@H]2Cn3c(cccc3=O)[C@H]1N2Cc1cncnc1
  -3, 1
> COCC#Cc1cnc2c(c1)C(=O)N([C@@H](C)CO)C[C@@H](C)[C@@H](CN(C)C(=O)CCN1CCCCC1)O2
  20, -2
> O=C(C[C@H]1CC[C@@H]2[C@H](COC[C@@H](O)CN2Cc2ccc(Oc3ccccc3)cc2)O1)N1CCOCC1
  -4, -2
> O=C(N[C@H]1CC[C@@H](CCNS(=O)(=O)c2ccc(F)cc2)O[C@H]1CO)c1cnccn1
  -10, -4
> O=C(C[C@H]1C[C@H]2c3cc(NC(=O)C4CCOCC4)ccc3O[C@H]2[C@@H](CO)O1)NCc1ccccc1F
  14, 8
> C[C@H](CO)N1C[C@H](C)[C@@H](CN(C)C(=O)Nc2ccccc2)Oc2c(NC(=O)c3ccc(-c4nccs4)cc3)cccc2C1=O
  1, -4
> CN(C)C(=O)C[C@H]1CC[C@H](NC(=O)Nc2cccc(F)c2)[C@H](CO)O1
  11, 15
> Cc1ccc(S(=O)(=O)Nc2ccc3c(c2)C(=O)N([C@@H](C)CO)C[C@H](C)[C@@H](CN(C)C(=O)Nc2c(C)noc2C)O3)cc1
  7, 0
> CO[C@H]1CN(C)C(=O)c2ccc(NC(=O)CC(F)(F)F)cc2OC[C@H](C)N(C(=O)C2CCOCC2)C[C@H]1C
  16, 13

Reformatted in CSV form: two of the compounds above.
SMILES,Vaccinia stage,Vaccinia stage Venus
N#Cc1ccc(-c2ccc3c(c2)[C@@H]2[C@@H](CCN2C(=O)C2CCCCC2)[C@@H](CO)N3)cc1,?,·
COc1cc(CN2CC3(CN(C)C3)c3c([nH]c4cc(OC)ccc34)[C@H]2CO)cc(OC)c1,2,0

The list continues.
Screens in order: Vaccinia stage, Vaccinia stage Venus
> CN1C(=O)c2cc(NC(=O)Nc3ccccc3F)ccc2OC[C@H]2O[C@@H](CC(=O)NCc3ccc(-c4ccccc4)cc3)CC[C@@H]21
  1, 3
> COc1cc(CO)cc(I)c1O[C@H]1C=C(C(=O)NCCO)C[C@@H](N(CC2CCCCC2)C(=O)c2ccc(C(F)(F)F)cc2)[C@@H]1O
  13, 2
> O=C(N[C@H]1CC[C@H](CC(=O)N2CCC(Cc3ccccc3)CC2)O[C@@H]1CO)c1cnccn1
  -7, -3
> C[C@H]1CN([C@@H](C)CO)S(=O)(=O)c2ccc(C#Cc3ccc(F)cc3)cc2O[C@H]1CN(C)S(=O)(=O)c1cn(C)cn1
  ?, ·
> COc1cccc(-c2ccc3c(c2)O[C@H](CN(C)C(C)=O)[C@@H](C)CN([C@@H](C)CO)S3(=O)=O)c1
  1, -5
> Cc1noc(C)c1NC(=O)N(C)C[C@H]1OCCCC[C@H](C)Oc2ccc(NS(=O)(=O)c3ccc(F)cc3)cc2C(=O)N([C@@H](C)CO)C[C@@H]1C
  15, 6
> CCC(=O)Nc1ccc2c(c1)C(=O)N(C)C[C@@H](OC)[C@@H](C)CN(C(=O)NC(C)C)[C@@H](C)CO2
  20, 6
> O=C(C[C@@H]1C[C@H]2c3cc(NC(=O)Nc4ccccc4)ccc3O[C@H]2[C@H](CO)O1)NCC1CC1
  -4, -8
> CCCNC(=O)N1C[C@@H]2[C@H](c3ccccc31)[C@H](CO)N2Cc1ccc2c(c1)OCO2
  12, 10
> C[C@@H]1CN([C@@H](C)CO)C(=O)c2cc(NS(=O)(=O)c3ccc(F)cc3)ccc2O[C@@H]1CN(C)Cc1ccccc1
  1, -1
> C[C@H](CO)N1C[C@H](C)[C@@H](CN(C)Cc2ccc(C(=O)O)cc2)Oc2ccc(NS(=O)(=O)c3cn(C)cn3)cc2C1=O
  4, 4
> Cc1noc(C)c1S(=O)(=O)N(C)C[C@H]1OCCCC[C@@H](C)Oc2ccc(NS(=O)(=O)c3ccccc3)cc2C(=O)N([C@H](C)CO)C[C@@H]1C
  9, 7
> COc1ccc2c3c([nH]c2c1)[C@@H](CO)N(C)CC31CN(S(=O)(=O)c2ccc(C)cc2)C1
  -14, -8
> C[C@@H]1CN([C@@H](C)CO)C(=O)c2cccc(NC(=O)Nc3ccc4c(c3)OCO4)c2O[C@H]1CN(C)Cc1ccc(C(=O)Nc2ccccc2N)cc1
  5, 3
> COc1ccc2c3c([nH]c2c1)[C@@H](CO)N(Cc1nccs1)CC31CN(C(=O)C2CC2)C1
  15, 13
> C[C@@H]1CCCCO[C@@H](CN(C)C(=O)c2ccccc2)[C@H](C)CN([C@H](C)CO)C(=O)c2cc(NC(=O)Cc3ccccc3)ccc2O1
  -20, -22
> CCC(=O)Nc1ccc2c(c1)OC[C@@H](C)N(C(=O)c1ccncc1)C[C@@H](C)[C@@H](OC)CN(C)C2=O
  13, 9
> COc1ccc2c3c([nH]c2c1)[C@@H](CO)N(Cc1ccccn1)CC31CCN(C(=O)CC2CC2)CC1
  7, 10
> COc1ccc(C#Cc2ccc3c(c2)O[C@@H](CN(C)C(=O)c2ccccn2)[C@@H](C)CN([C@@H](C)CO)S3(=O)=O)cc1
  ?, ·
> O=C(NCC[C@H]1CC[C@H](NC(=O)C2CCC2)[C@H](CO)O1)Nc1ccc(Cl)cc1
  6, 7
> Cc1ccc(S(=O)(=O)Nc2cccc3c2O[C@@H](CN(C)Cc2ccccc2)[C@@H](C)CN([C@H](C)CO)C3=O)cc1
  3, -4
> C[C@H](CO)N1C[C@H](C)[C@H](CN(C)S(=O)(=O)c2ccccc2F)Oc2cc(-c3ccncc3)ccc2S1(=O)=O
  -31, -28
> Cc1ccc(S(=O)(=O)N(C)C[C@@H]2OCCCC[C@@H](C)Oc3ccc(NC(=O)c4ccccc4)cc3C(=O)N([C@H](C)CO)C[C@@H]2C)cc1
  ?, ·
> COc1cccc(CN2[C@H](CO)[C@H](c3ccccc3)C23CN(C(=O)C2CCCCC2)C3)c1
  -17, -8
> C[C@H]1CN([C@@H](C)CO)C(=O)c2cc(NS(=O)(=O)c3ccccc3)ccc2O[C@@H]1CN(C)Cc1ccc(C(=O)Nc2ccccc2N)cc1
  12, 5
> COc1ccccc1S(=O)(=O)N[C@@H]1C=C[C@H](CC(=O)N2CCN(C)CC2)O[C@@H]1CO
  -13, -10
> COc1ccc(S(=O)(=O)Nc2ccc3c(c2)C(=O)N([C@H](C)CO)C[C@@H](C)[C@H](CN(C)CC2CCCCC2)O3)cc1
  -4, -3
> C[C@@H]1CN([C@H](C)CO)C(=O)c2cc(C3=CCCCC3)cnc2O[C@@H]1CN(C)C(=O)c1ccc2c(c1)OCO2
  6, -8
> Cc1ccc(S(=O)(=O)N[C@@H]2CC[C@H](CC(=O)NCCN3CCCCC3)O[C@@H]2CO)cc1
  29, 18
> CC(C)(O)C#Cc1cccc(-c2nc(C(=O)O)cc3c2[C@H](CCO)N(S(=O)C(C)(C)C)C3)c1 (stereo not given in full)
  17, 25
> CO[C@@H](CN(C)S(=O)(=O)c1ccccc1)[C@@H](C)CN(Cc1ccccc1Cl)[C@@H](C)CO
  4, 4
> O=S(=O)(N[C@H]1CC[C@@H](CCn2cc(-c3cccnc3)nn2)O[C@H]1CO)c1ccc(Cl)cc1
  -5, -1
> C[C@@H]1CN([C@H](C)CO)C(=O)c2cc(C#C[C@@H](C)O)cnc2O[C@@H]1CN(C)C(=O)CN(C)C
  15, 11
> O=C(N[C@H]1CC[C@@H](CCNC(=O)C2CC2)O[C@@H]1CO)c1ccccn1
  9, 7
> C[C@@H]1CN([C@H](C)CO)C(=O)c2cc(NC(=O)Cn3cnnn3)ccc2O[C@H]1CN(C)S(=O)(=O)c1ccc(Cl)cc1
  -2, 1
> COc1ccc(CNC(=O)C[C@@H]2CC[C@@H](NC(=O)c3ccc4c(c3)OCO4)[C@@H](CO)O2)cc1
  -6, -7
> C[C@@H]1CN([C@H](C)CO)C(=O)c2cccc(NC(=O)c3ccncc3)c2O[C@H]1CN(C)S(=O)(=O)c1cccs1
  5, 1
> O=C(C1CCCC1)N1CC(=O)N2[C@H](CO)[C@H](c3ccc(C#CC4CCCC4)cc3)[C@@H]2C1
  2, 1
> COc1ccc(S(=O)(=O)Nc2ccc3c(c2)CC(=O)N([C@@H](C)CO)C[C@H](C)[C@@H](CN(C)Cc2ccc(Cl)c(Cl)c2)O3)cc1
  ?, ·
> C[C@H](CO)N1C[C@H](C)[C@H](CN(C)Cc2ccncc2)Oc2c(NS(=O)(=O)c3ccc(Cl)cc3)cccc2C1=O
  -4, -7
> O=C(C[C@H]1CC[C@H]2[C@@H](COC[C@H](O)CN2Cc2cccc(C(F)(F)F)c2)O1)NCc1ccccc1
  -20, -14
> CO[C@H]1CN(C)C(=O)c2ccc(NC(C)=O)cc2OC[C@@H](C)N(Cc2ccc(F)cc2)C[C@@H]1C
  -10, -7
> C[C@@H]1CN([C@@H](C)CO)C(=O)c2cc(NC(=O)Nc3ccccc3)ccc2O[C@@H](C)CCCCO[C@@H]1CN(C)C(=O)Cc1ccccc1
  22, 5
> O=C(Cc1ccccn1)N1CCCCN2[C@H](C1)[C@@H](c1ccc(-c3ccc(F)cc3)cc1)[C@@H]2CO
  20, -7
> Cc1ccc(S(=O)(=O)Nc2ccc3c(c2)CC(=O)N([C@@H](C)CO)C[C@@H](C)[C@@H](CN(C)S(=O)(=O)c2c(C)noc2C)O3)cc1
  10, 7
> CCC(=O)Nc1ccc2c(c1)C(=O)N(C)C[C@@H](OC)[C@H](C)CN(CCC(F)(F)F)[C@@H](C)CO2
  -4, -5
> CC=Cc1ccc2n(c1=O)C[C@@H]1[C@@H](CO)[C@H](C(=O)NCCC)N(C(=O)C3CCOCC3)[C@H]21 (mixture of isomers)
  18, 11
> CCC(=O)N(C)C[C@@H]1Oc2ncc(-c3ccccc3F)cc2C(=O)N([C@@H](C)CO)C[C@H]1C
  -8, -9

An excerpt; count on the stated rates, not on these rows.
